# Assay outcomes as filed in PubChem BioAssay.
# S aureus helic: blocks Staphylococcus aureus DNA helicase. hit rate 0.05% among 120,000. inhibition, %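 (tested at about 80 µM)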. AID 485395. purified S. aureus helicase, fluorescence unwinding assay; about half of the hits fall short of the stated cut;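 active = both duplicates at 50% or more, or one of them with a favoured structure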;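 also: 0% = mean of negative control wells and 100% = mean of positive control wells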
# MgrA-DNA mod: modulators of Staphylococcus aureus MgrA DNA binding; fluorescence polarization; inhibition, %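 (about 10 µg/mL by stock and volumes)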; hit rate 0.13% among 84,000;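 active = above 50% in either of two replicates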;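 also: 0% = protein plus DNA without compound and 100% = DNA alone without protein; higher means less MgrA bound to DNA so lower polarization; one replicate is shown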
# Numbers without * were called inactive; nt = not tested or not shown; & = joins results of further samples. Only part of the results is shown; the hit share may differ from the screen's.
# Results follow in this order: S aureus helic | MgrA-DNA mod
CN1c2ccsc2C(=O)/C(=C\Nc2cccc(C(F)(F)F)c2)S1(=O)=O
    nt | -1.5
CCN1CCCC1CNC(=S)Nc1cccc(C)c1 (stereo not drawn)
    7.0 | nt
NC(=O)C1CCN(c2ccnc3cc(Cl)ccc23)CC1
    -6.0 | nt
CC1(C)C=C2C(=NN(c3ccccc3)C(N)=C2C#N)CO1
    9.0 | 1.6
CN(C)c1cccc(C(=O)NC2CCCc3ccccc32)c1 (stereo not drawn)
    -1.0 | nt
COc1ccc(C2C(C(=O)N3CCOCC3)=C(C)NC3=C2C(=O)CCC3)cc1Br (stereo not drawn)
    6.0 | nt
CCN1CCN(CCNC(=O)c2ccc3c(c2)NC(=O)/C(=C\c2cccc(Cl)c2)S3)CC1
    8.0 | -1.1
CCC1(C)Cc2c(sc3c2c(=O)n(C)c2nnc(SCC(=O)c4ccccc4)n32)CO1 (stereo not drawn)
    2.0 | nt
Cc1ccc(N/N=C(\C#N)C(=O)NC2CC2)cc1C
    9.0 | nt
COc1cccc(NC(=O)NCCSCc2ccco2)c1
    nt | -0.9
Cc1nnsc1C(=O)ON=C(c1cccs1)c1cccs1
    -19.0 | nt
Cc1ccc(CNC(=O)CSc2nnc(N3C(=O)c4ccccc4C3=O)s2)cc1
    14.0 | 0.2
CN(C(=O)CSc1nccc(=O)[nH]1)C1CCCCC1
    -3.0 | nt
Cn1c(SCc2nc(N)nc(N3CCCc4ccccc43)n2)nnc1-c1ccccc1
    9.0 | -1.1
Cn1c(O)c(C=Nc2ccccc2)oc1=S
    3.0 | 3.6
CCS(=O)(=O)N1CCC(NC(=O)c2ccccc2Cl)CC1
    -1.0 | -1.8
CCn1nc(C)cc1-c1nnc(SCC(=O)c2ccccc2)n1-c1ccccc1
    nt | -3.1
COc1ccc(CN2CCN(c3ccc(F)cc3)CC2)c2ccccc12
    2.0 | -1.0
CCC(Sc1nc2ccsc2c(=O)n1NC(=O)c1ccccc1)C(=O)Nc1cccc(C)c1 (stereo not drawn)
    1.0 | 1.6
CSc1nc2nc3c(c(=O)n2[nH]1)CCCC3
    6.0 | 4.3
Cn1cc(C(=O)OCc2cccc3ccccc23)cn1
    -13.0 | nt
NS(=O)(=O)c1ccc(CCNC(=O)C(Sc2ccccc2)c2ccccc2)cc1 (stereo not drawn)
    9.0 | -2.3
N#CC1=NN(c2ccccc2)C(c2ccccc2)CC1=O (stereo not drawn)
    21.0 | -7.3
O=C(O)CCn1c(SCCOc2ccc(Cl)cc2)nc2ccccc21
    nt | 1.0
CCC12CN(C(=O)c3ccc(OC)cc3)CC(CC)(CN(C(=O)c3ccc(OC)cc3)C1)C2=O
    19.0 | -2.5
N=C=C1C(=O)c2ccccc2C1=O
    -18.0 | nt
CN(Cc1nnc(-c2ccccc2)o1)C(=O)c1ccc(F)cc1
    5.0 | nt
CC(C)c1nc2ccccc2n1Cc1ccccc1Cl
    13.0 | 4.4
Clc1nc(Nc2ccccc2)sc1/C=N/N1CCOCC1
    -64.0 | nt
C=CCn1c(SC(C)C(N)=O)nnc1-c1ccc(OC)cc1 (stereo not drawn)
    -3.0 | nt

# Profiles as entered above.
# N#CC1=NN(c2ccccc2)C(c2ccccc2)CC1=O (stereo not drawn) across the screens: S aureus helic: 21.0; MgrA-DNA mod: -7.3
# Cn1cc(C(=O)OCc2cccc3ccccc23)cn1 across the screens: S aureus helic: -13.0; MgrA-DNA mod: nt

# Next records follow.
# Results follow in this order: S aureus helic | MgrA-DNA mod
CC(Sc1nc2ccccc2c(=O)n1C)C(=O)Nc1ccc2c(c1)OCCO2 (stereo not drawn)
    10.0 | nt
OC(CNCc1cc2ccccc2s1)C(F)(F)F (stereo not drawn)
    nt | 1.4
Cc1cccc(CC(=O)N2CC(C)OC(C)C2)c1 (stereo not drawn)
    24.0 | -3.1
CC1CCCC(C)N1CC(=O)N1CCCc2c1c(=O)oc1ccc(OCc3ccccc3)cc21 (stereo not drawn)
    -14.0 | nt
Nc1c(S(=O)(=O)c2ccc(F)cc2)c2nc3ccccc3nc2n1Cc1cccs1
    7.0 | nt
CC1(C)CC(=O)c2sc(NC(=O)c3ccc(F)cc3)nc2C1
    2.0 | nt
CCN(CC)c1ccc(C=NNC(=O)Cn2nnc3ccccc32)c(O)c1
    25.0 | nt
CCN(C(=O)c1cc2c(s1)-c1ccccc1S(=O)(=O)C2)c1ccc(F)cc1
    -14.0 | nt
CCOC(=O)CNc1nnc(-c2ccccc2)c(-c2ccccc2)c1C#N
    -11.0 | -4.9
Cc1ccc(N(CC(=O)N2CCc3ccccc32)C2=NC(=O)CS2)cc1
    10.0 | nt
Cc1cc(Cl)n(-c2ccc(F)cc2)n1
    -9.0 | nt
NC1=NC2(CS1)CSC(N)=N2
    nt | -2.1
c1ccn2c(SCc3ccc4c(c3)OCCO4)nnc2c1
    13.0 | -0.8
NS(=O)(=O)c1ccc(NC(=O)CCCC(=O)O)cc1
    1.0 | -2.2
COC(=O)[C@H](Cc1ccccc1)NC(=O)[C@@H](N)CC(=O)O
    nt | 2.9
CN1CCN(c2oc(-c3ccccc3F)nc2C#N)CC1
    11.0 | nt
COc1[nH]c2ccccc2c1/C=N/O
    16.0 | -0.9
O=C1OC(c2nn3c(-c4ccccc4)nnc3s2)Cc2ccccc21 (stereo not drawn)
    16.0 | nt
Cc1nc(-c2ccc(S(=O)(=O)N3CCCCCC3)s2)cs1
    nt | -0.9
CCn1c(NCc2ccccn2)nc2ccccc21
    6.0 | 0.7

# More compounds follow:
smiles | S aureus helic | MgrA-DNA mod
CCSc1nnc(CNc2ccc(F)cc2)n1-c1ccc(C)cc1 | 1.0 | 1.2
CCOC(=O)c1c(CN(CC)CC)oc2ccc(OC)cc12 | 7.0 | -1.4
Cc1oc2ncn(C)c(=O)c2c1C(=O)N1CCCCC1 | -25.0 | nt
COc1ccc(NC(=O)C(C(=O)Nc2ccc(OC)cc2)C23CC4CC(CC(C4)C2)C3)cc1 | nt | 1.5
C=CCn1c(SCc2c(C)noc2C)nc2scc(-c3cccs3)c2c1=O | -2.0 | nt
CC1CC(C)CN(c2ncnc3c2cnn3-c2ccc(Cl)cc2)C1 (stereo not drawn) | -8.0 | nt
C#CC(CC)(CC)NC(=O)C1CC(C)=C(C)CC1C(=O)O (stereo not drawn) | -1.0 | -1.5
O=C(NC1CCCCC1)O/N=C/c1ccc(F)cc1 | 11.0 | -0.5
CN(C)CCN1C(=O)c2oc3ccccc3c(=O)c2C1c1cccnc1 (stereo not drawn) | 7.0 | 3.2
CC(NC(=S)N1CCN(CCO)CC1)C12CC3CC(CC(C3)C1)C2 (stereo not drawn) | 9.0 | 0.2
O=C(Nc1ccccc1Br)N(C1=NCCS1)c1ccc(Cl)cc1 | -3.0 | 1.4
CN(C)S(=O)(=O)c1ccc2oc(SCC(=O)O)nc2c1 | -8.0 | nt
O=C(c1ccccc1)N(Cc1ccco1)c1nc(-c2ccccc2)cs1 | -1.0 | -2.1
C1=Nc2ccccc2-c2nnc(SCc3ccccc3)nc2O1 | 17.0 | 5.7
Cc1cc(C(=O)Nc2ccc(N3CCCCC3)cc2)no1 | nt | 0.8
CCOC(=O)N1CCN(C(=O)Nc2sc3nc4n(c(=O)c3c2C)CCC(C)CC4)CC1 (stereo not drawn) | 3.0 | nt
COc1ccc(/C=C2\SC(=S)N(CC3CCCO3)C2=O)cc1 (stereo not drawn) | -15.0 | -0.1
COC(=O)c1ccc(Cn2cc(S(=O)(=O)N3CCCC3)ccc2=O)o1 | -14.0 | nt
CCC(CO)n1cnnc1-c1ccncc1 (stereo not drawn) | 8.0 | nt
CC(C)C(=O)N1C2CCC1CC(O)(c1ccccc1F)C2 (stereo not drawn) | 10.0 | -0.8
CCOC(=O)c1ccccc1NC(=O)c1ccc(-n2nc(C)cc2C)cc1 | -1.0 | -1.3
CNC(=S)N(Cc1ccccc1)Cc1ccccc1 | 8.0 | 0.6
CNC(=S)N/N=C/c1ccc(OC)c(OC)c1 | nt | -1.4
O=C(O)CCCC(=O)Nc1ccc(-c2nc3ccccc3[nH]2)cc1 | 14.0 | -2.6
CCN(CC)c1cc(C)c2cc(NC(=O)/C(C)=C\c3ccccc3)ccc2n1 | 8.0 | -1.4
CCOC(=O)c1sc(SC)nc1N | -9.0 | 0.2
CN1C(=S)N(C2CCCCC2)C(=O)/C1=C/c1ccc(N2CCCC2)cc1 | -115.0 | nt
CCOc1ccc2c3c(c(=O)oc2c1OCC)CCCC3 | 19.0 | nt
O=C(N/N=C/C1=C(N2CCOCC2)C(=C\c2ccccc2)/CC1)Nc1ccccc1 | 0.0 | nt
O=C(Cc1cccs1)N(c1nnc(-c2ccc(F)cc2)s1)C1CCCC1 | 8.0 | 3.4
Cc1ccc(CC(=O)O)cc1 | nt | -4.9
CCCn1c(=O)n(C)c(=O)c2c3nc4ccccc4c(-c4ccccc4)c3[nH]c21 | -196.0 | nt
C=C1CC[C@H](O)C/C1=C/C=C1\CCC[C@]2(C)C([C@H](C)/C=C/[C@H](C)C(C)C)CC[C@@H]12 (stereo partly drawn) | nt | 2.8
CC1(C)CC(=O)C=C(SCC(=O)Nc2ccc(Cl)cc2)S1 | nt | -1.2
CCOC(=O)c1cc(-c2ccccc2)nn1CCC#N | 13.0 | -0.7
COc1cc(C=C2C(=O)NC(=S)NC2=O)ccc1OCCOc1ccc(C(C)(C)C)cc1 | nt | 15.5
Cc1[nH]c2ccccc2c1C | 4.0 | nt
Cc1ccc(S(=O)(=O)Oc2ccccc2/C=C2\N=C(c3ccccc3)OC2=O)cc1 | nt | 3.5
COC(=O)CC1(C)NN=C(c2ccccc2)S1 (stereo not drawn) | 12.0 | 11.9
O=C(O)CCC(=O)NCC1COc2ccccc2O1 (stereo not drawn) | nt | -1.1

# Random excerpt: three records from the list
smiles | S aureus helic | MgrA-DNA mod
O=C(N/N=C/C1=C(N2CCOCC2)C(=C\c2ccccc2)/CC1)Nc1ccccc1 | 0.0 | nt
CNC(=S)N(Cc1ccccc1)Cc1ccccc1 | 8.0 | 0.6
Cc1[nH]c2ccccc2c1C | 4.0 | nt

# Further records follow:
smiles | S aureus helic | MgrA-DNA mod
O=C(Nc1cc(Cl)ccc1N1CCOCC1)c1ccc2c(c1)S(=O)(=O)N=C1CCCCCN12 | -4.0 | nt
CC(=O)Nc1cc2ccccc2oc1=O | -2.0 | 0.7&4.7
CCOC(=O)CSc1nnc(-c2ccccc2C)n1CC | 1.0 | -0.5
CCc1cccc(NC(=O)c2csc3c2CCCC3)c1 | 10.0 | 0.1
CCn1cc(Br)c(-c2nc3ccccc3c(=O)n2N)n1 | 14.0 | 1.1
CCNC(=O)/C(C#N)=C/C1=Cc2ccccc2OC1 | -245.0 | nt
Oc1c(C(c2ccc(C(F)(F)F)cc2)N2CCOCC2)ccc2cccnc12 (stereo not drawn) | -4.0 | nt
CC1CCC(NC(=O)CN(C)S(=O)(=O)c2ccc3c(c2)CCC(=O)N3)CC1 (stereo not drawn) | -9.0 | nt
N#CCSc1nc2cc(Cl)ccc2n1Cc1ccccc1 | -9.0 | nt
CSc1cccc(NC(=O)c2ccc3c(c2)NC(=O)CS3)c1 | 14.0 | nt
O=C(OCCN1CCCC1=O)c1ccccc1 | -13.0 | 1.8
CCN(C(=O)c1cnc2ccc(C)cn2c1=O)c1ccccc1 | 2.0 | nt
COc1ccc(N2C(=O)NC(=O)C(Cc3ccc(OC)c(OC)c3)C2=O)cc1 (stereo not drawn) | -30.0 | nt
CCCCC(=O)N1CC(=O)Nc2ccc(C)cc2C1c1ccc(F)cc1 (stereo not drawn) | 10.0 | nt
c1ccc2sc(CSc3nc4ccccc4s3)nc2c1 | 4.0 | nt
COCCN1Cc2cccc(C(=O)NCc3ccccn3)c2C1=O | 4.0 | 10.7
CCS(=O)(=O)c1ccc2oc(=O)[nH]c2c1 | nt | -1.2
O=C(NC(=S)NCc1ccccc1)c1ccco1 | 16.0 | -1.4
CCn1cc(C(=O)N(C)C2CCCCC2)c2cc(OC)c(OC)cc2c1=O | 6.0 | 5.1
O=C(NC(=S)Nc1n[nH]c(C2CC2)c1N=Nc1ccc(Br)cc1)c1ccccc1 | nt | 8.6
CSc1ccccc1C(=O)NCc1cccnc1 | 21.0 | 1.2
Cc1ccc(-c2nc3ccc(N4CCCC4)cc3c(=O)[nH]2)cc1 | nt | -3.2
COC(=O)CN1C(=O)S/C(=C/c2ccc(-c3ccc(C(=O)O)cc3)o2)C1=O | 12.0 | 11.9
COc1ccc(C)cc1N(C)C(=O)c1nn(C)c2c1COc1ccccc1-2 | 13.0 | 0.0
N#Cc1cc2c(=O)n3ccccc3nc2n(CC2CCCO2)c1=O (stereo not drawn) | -11.0 | nt
CCC(Sc1nccn1C)C(=O)Nc1cc(C)on1 (stereo not drawn) | 5.0 | -2.0
Cc1cc(C)c(S(=O)(=O)N2CCCC(C(=O)NC3CC3)C2)c(C)c1 (stereo not drawn) | 10.0 | 1.9
CC(NC(=O)c1ccc2c(c1)OCCO2)C12CC3CC(CC(C3)C1)C2 (stereo not drawn) | nt | 0.5
CSC(=NC#N)N1CCN(c2ccc([N+](=O)[O-])cn2)CC1 | nt | -1.9
CSc1nc2ccc(NC(=O)C3CC(=O)N(Cc4ccco4)C3)cc2s1 (stereo not drawn) | -4.0 | nt
CCOC(=O)c1[nH]c(C)c(C(=O)OCC)c1CC | nt | -1.9
CN(C)Cn1c2ccccc2c2ccccc21 | 20.0 | -0.1
O=C1c2ccccc2S(=O)(=O)NN1Cc1nnc(-c2ccccc2Br)o1 | 10.0 | nt
O=C(Nc1ccc2c(c1)SC1=NCCN12)C(F)(F)F | 3.0 | 0.1
Cc1ccc(NC2OC(=O)c3ccccc32)cc1C (stereo not drawn) | 10.0 | nt
O=C(NCc1ccc(F)cc1)C1CC(=O)N(c2ccc(F)cc2)C1 (stereo not drawn) | 5.0 | -4.2
CCc1ccc(OCC(O)CNC(C)(C)C)cc1 (stereo not drawn) | -18.0 | nt
Cc1occc1C(=O)N/N=C/c1c[nH]c2ccccc12 | 10.0 | 2.3
NC(=O)COc1ccc(S(=O)(=O)c2ccc(OCC(N)=O)cc2)cc1 | 4.0 | 4.0
COc1ccc(S(=O)(=O)N(C)C2CCCCC2)cc1C | -19.0 | nt
